Source: PubChem BioAssay (Fisher Drug Discovery Resource Center)
NPYLR7 agonist = agonists of mosquito NPYLR7 receptor, primary screen, cell-based, Aedes aegypti, calcium fluorescence, mosquito biting behavior; Aedes aegypti neuropeptide Y-like receptor 7 (NPYLR7); HEK293T NPYLR7/Galpha15, GCaMP6s calcium fluorescence; activation, % at 10 µM; 0.15% of 270,000 active; AID 1259423, 2018; in the data active means activation above about 40%;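 further: 0% = vehicle and 100% = reference agonist at the receptor; some compounds past the cut are filed as inactive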
NPYLR7 agonist max-min = recorded beside NPYLR7 agonist, whose call it bears; activation, %; measured here: Max-Min RFU normalised activation; some inactives read as strong as hits;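 span of the calcium signal over five minutes; 0% = vehicle and 100% = native peptide agonist; compound fluorescence can raise it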
The depositor's hits bear a star; & = joins results of further samples.

Start of the data: the first two records as a preview:
SMILES | NPYLR7 agonist | NPYLR7 agonist max-min
COc1cc(C(=O)N2[C@@H]3CC[C@H]2CN(C)C(=O)C3)ccn1 | 1 | -3
Cc1cc(O)c(C=O)c2c1C(=O)Oc1c(C)c(O)c3c(c1O2)C(O)OC3=O (configuration not stated) | -8 | -19

Results, repeating the preview:
SMILES | NPYLR7 agonist | NPYLR7 agonist max-min
COc1cc(C(=O)N2[C@@H]3CC[C@H]2CN(C)C(=O)C3)ccn1 | 1 | -3
Cc1cc(O)c(C=O)c2c1C(=O)Oc1c(C)c(O)c3c(c1O2)C(O)OC3=O (configuration not stated) | -8 | -19
COc1ccc(-c2nc(-n3c(C)c(C(C)=O)c(C(C)=O)c3C)sc2C)cc1OC | -4 | -13
C=CCN1C(=O)NC(c2cccc(OCc3ccccc3)c2)C2=C1CN(Cc1cccc(C(F)(F)F)c1)C2=O (configuration not stated) | -13 | -15
Cc1nc(C)c(CS(=O)CC(=O)N(C)Cc2cccs2)s1 (configuration not stated) | -2 | -10
O=C(Nc1cc2c(cc1Cl)OCCCO2)C1CCCN(C(=O)Nc2ccccc2)C1 (configuration not stated) | 2 | -1
COc1ccc(Cl)cc1NC(=O)CSc1nc(C(F)(F)F)cc(=O)[nH]1 | -1 | -4
Cc1ccccc1C1c2ccsc2CCN1CC(=O)N1CCN(C(=O)C(C)(C)CCl)CC1 (configuration not stated) | -25 | -8
CC(=O)Nc1ccc(-c2c(-c3cccc(C)c3)[nH]n(-c3ccccc3C)c2=O)cc1 | 8 | 15
O=C(c1cc(-c2ccccc2F)on1)N1CCc2ccc(O)cc2C1 | 2 | 1
Cc1cccc(OC(C)C(=O)NNC(=O)C2CC2c2cccnc2)c1C (configuration not stated) | -1 | 41
CCCCn1c(C)cn2c3c(=O)n(C)c(=O)n(C)c3nc12 | 13 | 4
O=C(O)c1cc(F)ccc1-c1cccc(C(F)(F)F)c1 | 2 | 2
Cn1nccc1C(=O)N1CCCC1C(=O)Nc1cccc(-n2cccn2)c1 (configuration not stated) | 3 | -2
S=c1nc[nH]c2cc(-c3ccc(Br)cc3)sc12 | -10 | -19
C=CCNC(=O)c1ccccc1N1CCC(NC(=O)C2CC2)CC1 | -3 | 3
OCc1csc(COc2ccc(Cl)cc2CNCc2cccc(C(F)(F)F)c2)n1 | 9 | 5
COc1cccc(C(=O)NCC2CCCN(Cc3cccc4cccnc34)C2)c1OC (configuration not stated) | 19 | 4
Cc1nc(-n2nc(-c3cccs3)cc2NC(=O)Cc2ccc(F)cc2)[nH]c(=O)c1C | 9 | 6
Cn1cc(C(O)CNC(=O)Cc2ccc(-c3ccccc3)cc2)cn1 (configuration not stated) | 3 | -1
O=C1N/C(=C/c2ccc(Br)cc2)C(O)=C1C=NCc1ccccc1 | 10 | 9
NC(=O)C1CCN(C(=O)c2ccc(-c3cccc(Cl)c3Cl)o2)CC1 | -15 | -18
C=CCN(CC(O)COC(=O)CCC)CC1CC(c2ccc(Cl)cc2)=NO1 (configuration not stated) | -3 | 4
CC12CN(NC=O)C3(C#N)CC1CCC23C (configuration not stated) | 0 | -3
Cc1cccnc1NC(=O)C(c1ccccc1)N1CCSCC1 (configuration not stated) | -4 | -6
C1COC(c2nnc3n2CCNCC3)C1 (configuration not stated) | 5 | 3
CC(OC(=O)c1ccc(F)cc1Br)C(N)=O (configuration not stated) | 1 | 1
CCc1nc2ccc(C(=O)NCCNC(C)=O)cn2c1N(C)Cc1ccc(Cl)cc1 | -5 | -8
O=S(=O)(c1ccc2c(c1)OCCCO2)N1CCN(c2ncc(Cl)cc2Cl)CC1 | -1 | -1
C[N+](C)(CCOc1ccccc1)Cc1ccccc1 | -2 | -5
CC(=O)NC1CCN(c2ccnc3cc(Br)ccc23)CC1 | -27 | -29
CCC(C)C(NC(=O)C(C)Cl)C(=O)Nc1nnc(-c2cccc(C)c2)s1 (configuration not stated) | -5 | -5
O=C(O)c1cc(-c2cccnc2)cc(S(=O)(=O)N2CCCCCC2)c1 | -5 | -8
COc1ccccc1-c1cc(CN2CCN(c3ccccc3O)CC2)on1 | -1 | 1
CC(C)CC1(CO)CCCN(Cc2ncc[nH]2)C1 (configuration not stated) | 6 | 2
CC(OC(=O)c1cc(Br)c[nH]1)C(=O)Nc1ccccc1Cl (configuration not stated) | -1 | 10
CCOC(=O)Oc1c(Cl)cc2oc(=O)sc2c1Cl | 1 | -1
COc1cc(CNc2ccc(OC)nc2)c2c(c1)CC(C)O2 (configuration not stated) | 1&7 | 0&7
COc1ccc(CNC(=O)CN2CCc3[nH]c4c(OC)ccc(Cl)c4c(=O)c3C2)cc1OC | -2 | -2
COCCN(Cc1nccn1Cc1ccc(Cl)cc1Cl)C(=O)C1CCC1 | -3 | 4
CC1(C)CCC(C)(C)c2cc(C3(c4ccc(C(=O)O)cc4)OCCO3)ccc21 | -15 | -21
CCCc1cc(C(=O)N2CCCC(c3nn(C)c(=O)n3CC)C2)no1 (configuration not stated) | 0 | -2
CC(C)Oc1ccc(C(O)=C2C(=O)C(=O)N(CCN3CCOCC3)C2c2cccs2)cc1 (configuration not stated) | 12 | 14
Cc1cc(C)cc(NC(=O)NCCn2ncccc2=O)c1 | -11 | -15
CN1CC2(CCN(C(=O)CCOc3ccccc3)C2)OC1=O (configuration not stated) | 9 | 6
O=c1ccc(-c2cccs2)nn1CCCNS(=O)(=O)c1ccc(C(F)(F)F)cc1 | -3 | -5
Cc1ccc(-c2cc(C(=O)Nc3cccc(Cl)c3Cl)c3ccccc3n2)o1 | 28 | 22
CCOc1ccc2cc(C(N)=O)c(=Nc3ccccc3)oc2c1 | -13 | -12
Cc1ccc(C)c(Nc2nc(NCCN(C)C)nc3nccnc23)c1 | 6 | 4
CCN1CCN(S(=O)(=O)c2ccc(OC)c(N3CCN(C(=O)C(C)C)CC3)c2)CC1 | 5 | 2
Next section:
SMILES | NPYLR7 agonist | NPYLR7 agonist max-min
O=S(=O)(c1ccc2ccccc2c1)N1CCCc2ccccc21 | 3 | 1
CCc1cnc(C)nc1N1CCC(O)(Cc2ccccc2)CC1 | 0 | -5
CC(C)(C)c1ccc(NC(=O)c2ccc(CSc3nnc4ccccn34)cc2)cc1 | -7 | -11
O=C(c1cccc(Nc2c(Oc3ccc4c(c3)CCC4)cnn(-c3cccc(Cl)c3)c2=O)c1)N1CCCCC1 | -6 | -1
Cc1oc(-c2ccccc2NS(C)(=O)=O)nc1CN(C)C1CCSC1 (configuration not stated) | 17 | 6
Cn1ccnc1CN(C(=O)c1scc2c1CCCC2)C1CC1 | 3 | 2
COCCN1Cc2cc3c(cc2N(CC(O)C(F)(F)F)CCC1=O)OCO3 (configuration not stated) | -2 | 12
COc1ccc(C(=O)CSc2nnc(-c3ccco3)n2-c2ccc(C)cc2)cc1 | 16 | 22
Cn1nc(C(C)(C)C)cc1NC(=O)C1(C)CCN1C(=O)C1(c2ccccc2)CC1 (configuration not stated) | -5 | 21
O=C(/C=C\c1ccc([N+](=O)[O-])cc1)N(Cc1cccnc1)c1nc2c(F)cc(F)cc2s1 | -15 | -8
COC(=O)CCCC(=O)N1CCN(c2nc3nccc(-c4ccc(Cl)c(Cl)c4)n3n2)CC1 | 2 | 0
CC(C)CCN(C(=O)CN(C)C1CCCCCC1)c1c(N)n(Cc2ccccc2)c(=O)[nH]c1=O | 5 | 13
O=[N+]([O-])c1cc(S(=O)(=O)N2CCOCC2)ccc1NN=C1CCCC1 | -4 | -5
COc1ccc2c(NCc3ccc(OC)c(OC)c3)c(C#N)cnc2c1 | -3 | -8
COC(=O)C(Cc1c[nH]c2ccccc12)NC(=O)C(CCSC)N1C(=O)c2ccccc2C1=O (configuration not stated) | 11 | 5
COc1ccc(NC(=O)N(CC(=O)N(Cc2ccc3c(c2)OCO3)Cc2ccco2)C(C)C)cc1 | -1 | 2
CN(C)C(=O)CCCn1ccc(Nc2ncnc3ccsc23)n1 | 11 | 8
C=c1cc(C)n(CC(=O)Nc2cccc(OC)c2)c(=O)c1=C1N=C(c2ccc3c(c2)OCO3)NO1 | -3 | -6
CCOc1ccc(-c2nc(Cn3nnc(C(=O)Nc4ccc(OC)cc4)c3C)c(C)o2)cc1OC | 2 | 2
Cc1ccc(-n2nc3c(c2NC(=O)c2ccc(S(=O)(=O)N(C)C)cc2)CS(=O)(=O)C3)cc1C | -3 | -4

Seven compounds picked at random from those above:
SMILES | NPYLR7 agonist | NPYLR7 agonist max-min
C=c1cc(C)n(CC(=O)Nc2cccc(OC)c2)c(=O)c1=C1N=C(c2ccc3c(c2)OCO3)NO1 | -3 | -6
COc1ccc2c(NCc3ccc(OC)c(OC)c3)c(C#N)cnc2c1 | -3 | -8
CCOc1ccc(-c2nc(Cn3nnc(C(=O)Nc4ccc(OC)cc4)c3C)c(C)o2)cc1OC | 2 | 2
O=[N+]([O-])c1cc(S(=O)(=O)N2CCOCC2)ccc1NN=C1CCCC1 | -4 | -5
CC(C)CCN(C(=O)CN(C)C1CCCCCC1)c1c(N)n(Cc2ccccc2)c(=O)[nH]c1=O | 5 | 13
COc1ccc(NC(=O)N(CC(=O)N(Cc2ccc3c(c2)OCO3)Cc2ccco2)C(C)C)cc1 | -1 | 2
COC(=O)C(Cc1c[nH]c2ccccc12)NC(=O)C(CCSC)N1C(=O)c2ccccc2C1=O (configuration not stated) | 11 | 5

Other structures follow.
SMILES | NPYLR7 agonist | NPYLR7 agonist max-min
OCC1(CCCc2ccccc2)CCN(Cc2ccc3c(c2)OCCO3)CC1 | 17&11 | 13&14
COc1ccc(-n2c(SCc3ccccc3F)nc3c(c2=O)SCC3)cc1OC | -1 | -5
Cc1ccccc1CSc1nnc(CNC(=O)c2cccc([N+](=O)[O-])c2)n1-c1ccc(Cl)cc1Cl | -3 | -1
CC1CC(C)CN(S(=O)(=O)N2CCCC2C(C)C)C1 (configuration not stated) | 2 | 1
O=C(CSc1nc(=O)n(Cc2cccnc2)c2c1CCC2)Nc1ccccc1[N+](=O)[O-] | -3 | -4
C=CC(C)(C)OCC(O)CN1CCC(C)CC1 (configuration not stated) | -2 | 7
Cc1ccc2nc(SCc3ccccc3C)nc(=O)n2c1 | 1 | -2
CCN(C(=O)c1ccc(Br)cc1F)c1cccc(C)c1 | 1 | -1
COc1ccc(S(=O)(=O)NNC(=O)c2cncn2-c2ccc(F)cc2)cc1 | 5 | 4
Cc1cc(C)n(C2CCN(Cc3cc(C(C)C)no3)C2)n1 (configuration not stated) | 0 | -4

Quoted from the listing.
OCC1(CCCc2ccccc2)CCN(Cc2ccc3c(c2)OCCO3)CC1 in NPYLR7 agonist reads 17&11
C=CC(C)(C)OCC(O)CN1CCC(C)CC1 (configuration not stated) in NPYLR7 agonist max-min reads 7

(listing goes on)
SMILES | NPYLR7 agonist | NPYLR7 agonist max-min
O=C1c2ccccc2C(=O)c2c1ccc1c2Nc2ccccc2S1(=O)=O | 3 | 1
CC(=O)NCCNC(=O)c1nonc1N | 15 | 13
COCC(C)NC(=O)CSc1nc2ccccc2c(=O)n1-c1cccc(C)n1 (configuration not stated) | -4 | 2
N#CCCN(Cc1ncc(-c2ccccc2Cl)o1)CC1CC1 | 1 | 0
CC(C)C(=O)NCC(=O)N1CCC2(CC1)c1ccccc1[C@@H](N)[C@@H]2O | 4 | 1
Cc1ccc(NC(=O)NC2CCN(c3ccccc3C(=O)NCC3CC3)CC2)cc1 | 20 | 15
Cc1ccc(Cc2nc(N3CCCN(S(=O)(=O)c4cccc(C(F)(F)F)c4)CC3)c3c(-c4cccnc4)noc3n2)cc1 | 17 | 23
COc1cccc(C(=O)N2CCC3(CC2)OCC(C(=O)NCc2cccnc2)N3C(=O)c2ccco2)c1 (configuration not stated) | 5 | 19
Cc1ccc(CN2CCCC(CNC(=O)c3ccc(F)cc3)C2)o1 (configuration not stated) | 12&12 | 5&11
CC(=O)N1CCC(NC(=O)C2CCN(S(=O)(=O)c3ccc(C)cc3C)CC2)CC1 | 6 | 5
CCN(CC)C(=O)Oc1ccc2c(ccn2Cc2cc(Cl)ccc2Cl)c1-c1ccc(F)c(Cl)c1 | 23 | 7
COCCn1c(C)cc(O)c(C(c2cccc(OC)c2)N2CCN(c3ccccc3F)CC2)c1=O (configuration not stated) | 12 | 3

Whole records, quoted from the list.
`Cc1ccc(CN2CCCC(CNC(=O)c3ccc(F)cc3)C2)o1` (configuration not stated) is listed as NPYLR7 agonist: 12&12; NPYLR7 agonist max-min: 5&11
`CC(=O)NCCNC(=O)c1nonc1N` is listed as NPYLR7 agonist: 15; NPYLR7 agonist max-min: 13

An excerpt, so the mix of outcomes need not match the whole.
